Six1-Eya2 inh: Six1/Eya2 interaction inhibition; Q15475+O00167; AlphaScreen GST-Six1/His-Eya2 binding, biochemical; hits give low values; control for the full effect not named in the record; activity change, % (no concentration beside the values); 360,000 tested, 0.56% active; AID 651725; in the data active = activity change below about -65%; inconclusive = about -30% to -65%; inactive = above about -30%; further: on the % scale 0 is the no-effect control and ±100 the full control effect; compound concentration not given in the record
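Six1/Eya2 binding was read as AlphaScreen signal after compounds were pinned into GST-Six1 plus His-tagged Eya2 (5X stock 250/500 nM) in pH 8.0 Tris/NaCl/TCEP buffer, beads added, then incubated 1 h, 37 C, dark.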
D2 potentiator: human D2 receptor positive allosteric modulation. P14416. DiscoveRx D2 beta-arrestin cells, luminescence, 90 min; 100% = 57 uM dopamine signal. potentiation, % (test concentration not listed). 360,000 tested, 0.23% active; active = potentiation of 50% or more; inconclusive = 30% to 50%; inactive = 30% or less;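 further: compound concentration not given in the record; tested on top of an EC20 dose of dopamine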
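D2 cells co-treated with compound plus 50 nM dopamine (EC20) for 90 min at 37 deg C to detect potentiation. Beta-arrestin recruitment was read as enzyme-fragment luminescence after 1 h at ambient temperature. Full response was set by 57 uM dopamine.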
D2 ag: agonists of human D2 dopamine receptor (beta-arrestin); P14416; DiscoveRx PathHunter D2 beta-arrestin, luminescence, 90 min; 100% = 57 uM dopamine signal; activation, % (no concentration beside the values); 360,000 tested, 0.084% active; AID 624465; in the data active = activation above about 40%; inconclusive = about 15% to 40%; inactive = below about 15%; further: compound concentration not given in the record; the text of the record calls up to 30% inactive
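DiscoveRx PathHunter D2 beta-arrestin cells (2,100/well) attached overnight, then compound-stimulated 90 min at 37 C in HBSS/10 mM HEPES/0.1% Tween-20 buffer; beta-galactosidase complementation read by luminescence after 1 h at ambient temperature. Dopamine 57 uM final (EC100) as control.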
PINK1 expr mod: PINK1 expression modulation; PINK1 immunofluorescence, high-content cytometry, 24 h; Potency, µM (top dose mostly 76.6 µM), for inactives: at the top dose activation (PINK1 increase), usual class: activators; 410,000 tested, 0.2% active; AID 624263; active = well fitted activation curve with a large enough effect; inconclusive = small, poorly fitted or top-dose-only effect; inactive = flat fitted curve, though single readings scatter; cell line not stated here;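 further: potency means the concentration at half of the fitted maximal effect; % of control where 0% means no effect; nearly all actives have a fitted effect of over 65% in size; a mitochondrial uncoupler was the plate control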
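Readout is PINK1 immunofluorescence, quantified alongside mitochondrial, cell and nuclear markers by laser-scanning microplate cytometry. Cells from a stable line were exposed to compound titrations (5 concentrations) for 24 hours, with CCCP controls.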
CtBP-E1A inh: CtBP/E1A binding inhibition | activity change, % (concentration not given with the values) | AlphaScreen GST-E1A/His-CtBP binding, 1536-well; hits give low values; control for the full effect not named in the record | AID 651724 | 340,000 tested, 0.49% active; in the data active means activity change below about -65%; inconclusive means about -30% to -65%; inactive means above about -30%; further: on the % scale 0 is the no-effect control and ±100 the full control effect
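Homogeneous bead-based format: GST-tagged E1A captured on glutathione donor beads, His-tagged CtBP on nickel acceptor beads; compounds precede bead addition by 2 h at 37 °C.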
Sfp inh: blocks B. subtilis Sfp PPTase activity | Q9F4F7 | Biochemical Sfp PPTase activity, qHTS | Potency, µM, inactives show max response, negative = inhibition, usual class: inhibitors | 310,000 tested, 3.5% active | AID 1490; active means well fitted inhibition curve with a large enough effect; inconclusive means small, poorly fitted or top-dose-only effect, or another doubt; inactive means no such curve, though single readings can be large or run the other way;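 further: the enzyme is Sfp with the accession as filed and its product quenches rhodamine fluorescence; potency means the concentration at half of the fitted maximal effect; 0% = enzyme reaction without inhibitor and -100% = no enzyme wells; top concentration of the series not given in the record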
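With Hepes-Na pH 7.6 buffer containing 10 mM MgCl2, Sfp (15 nM) modified BHQ-2-YbbR (12.5 uM) using rhodamine-CoA (5 uM). Two reads 30 minutes apart at 525/598 nm yielded each well's rate.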
TRPV1 PAM: human TRPV1 potentiation | Q8NER1 | TRPV1-expressing cells, Fluo-8 calcium influx, capsaicin EC20 potentiation; host cell line not named in the record; control for the full effect not named in the record | potentiation, % at 8.33 µM | 320,000 tested, 0.02% active | AID 540277; active means potentiation above 80%; inconclusive means 30% to 80%; inactive means below 30%; further: 0% is about no effect
Target sequence (Q8NER1 whole entry, looked up): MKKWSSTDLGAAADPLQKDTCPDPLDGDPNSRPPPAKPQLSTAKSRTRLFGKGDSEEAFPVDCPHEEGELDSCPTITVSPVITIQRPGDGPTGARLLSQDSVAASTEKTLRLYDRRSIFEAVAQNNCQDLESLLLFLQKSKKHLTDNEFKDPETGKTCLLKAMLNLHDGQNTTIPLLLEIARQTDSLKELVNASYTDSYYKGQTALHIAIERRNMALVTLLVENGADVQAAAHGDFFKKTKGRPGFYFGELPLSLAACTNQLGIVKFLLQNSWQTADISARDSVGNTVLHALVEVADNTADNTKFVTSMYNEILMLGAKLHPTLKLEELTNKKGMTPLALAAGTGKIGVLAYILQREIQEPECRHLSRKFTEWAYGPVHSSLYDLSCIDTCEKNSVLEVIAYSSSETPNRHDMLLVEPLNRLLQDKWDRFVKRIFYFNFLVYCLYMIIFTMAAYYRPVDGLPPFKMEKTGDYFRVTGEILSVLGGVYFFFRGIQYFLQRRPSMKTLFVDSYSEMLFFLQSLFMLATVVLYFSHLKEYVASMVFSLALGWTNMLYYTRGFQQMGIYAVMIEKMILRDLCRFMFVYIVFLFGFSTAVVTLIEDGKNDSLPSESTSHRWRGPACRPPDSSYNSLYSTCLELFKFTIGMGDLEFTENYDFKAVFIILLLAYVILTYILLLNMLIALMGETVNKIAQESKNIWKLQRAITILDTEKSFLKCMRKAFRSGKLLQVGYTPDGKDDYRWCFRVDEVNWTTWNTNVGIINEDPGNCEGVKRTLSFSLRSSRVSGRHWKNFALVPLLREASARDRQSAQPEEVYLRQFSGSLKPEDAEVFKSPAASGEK
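Cells expressing TRPV1 were dye-loaded with Fluo-8 and read kinetically: 10 s baseline, 3 min after compound (agonist portion), then 2 min after EC20 capsaicin (allosteric enhancer portion). Calcium-bound dye fluorescence at 480/520 nm.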
Numbers without * were called inactive; ? = inconclusive; . = not tested or not shown; & = joins results of further samples; [ ] = dose if it differs, or a comment.

SMILES	Six1-Eya2 inh	D2 potentiator	D2 ag	PINK1 expr mod	CtBP-E1A inh	Sfp inh	TRPV1 PAM
O=C(NNC(=O)C1CC1)c1cc(Cl)nc2ccccc12	-2	-11	-6.4	1.1%	4	5%	4
Cc1nn(CC(=O)NC2CCCCC2)c(=O)c2cccn12	2	-8	-0.8	-0.6%	.	11%	-7
N#Cc1cccc(NC(=O)c2cc(C3CCCCN3S(=O)(=O)c3ccccc3)on2)c1 (stereo not given)	-8	0	1.5	1.7%	-2	.	.
Cc1nn(CC(=O)N2CCN(C34CC5CC(CC(C5)C3)C4)CC2)c(C)c1[N+](=O)[O-]	1	-10	-6.3	4.1%	0	20%	25
C[C@H](CO)N1C[C@H](C)[C@@H](CN(C)Cc2ccc(Cl)c(Cl)c2)Oc2c(NC(=O)c3ccncc3)cccc2C1=O	-21	12	7.7	3.3%	-19	.	.
Cc1nnc(NC(=O)C2CCCC2)s1	16	-4	2.4	2.0%	1	14%	-22
FCCCOc1ccc(-c2nccc(-c3ccc(Cl)cc3)n2)cc1	-1	-11	-1.6	4.4%	0	?	-1
Cc1nc2sc(C(c3cccs3)N3CCN(c4cccc(Cl)c4)CC3)c(O)n2n1 (stereo not given)	-19	-6	-0.7	13%	-20	10%	-6
O=C(Nc1ccccc1O)c1ccc(Cl)cc1	1	?	2.5	5.8%	-1	-5%	25
CCOC(=O)CSc1nc(C)cc(C)c1C#N	15	-3	-1.7	-0.9%	-2	56µM*	-12
CCOC(=O)Cc1csc(N/C(=N/S(=O)(=O)c2ccc(F)cc2F)c2ccccc2)n1	4	-2	1.2	-1.0%	5	18%	?
CCN(CC(=O)NC(C)C)C(=O)CCNC(=O)c1ccc(Cl)cc1	8	0	0.0	0.0%	3	14%	-5
CC1CCN(C(=O)CSc2nnc3ccc(-c4cccnc4)nn23)CC1	1	16	-1.5	1.1%	-9	.	-2
COc1cc(CCC(=O)Nc2cc(S(=O)(=O)N3CCOCC3)ccc2OC(C)C)cc(OC)c1OC	-13	-8	1.4	3.3%	-5	.	.
Cc1ccc(CC(=O)N2CCN(c3cccc(C(F)(F)F)c3)CC2)cc1	0	-10	-2.8	1.5%	10	4%	-10
C[N+](C)(C)CCNC(=O)c1c[nH]c2ccccc12	1	.	.	-1.1%	4	.	.
Cc1ccc(NC(=O)C2(NC(=O)c3ccccn3)CCCCC2)cc1Br	0	4	-2.0	0.4%	9	1%	-22
Cc1cc(NC(=O)COC(=O)C2CCN(S(=O)(=O)c3cccc(Cl)c3Cl)CC2)no1	-5	-4	-0.5	4.6%	-3	5%	2
CCOc1ccc(NCC(=O)Nc2ccc(C)cc2C)cc1	-5	-1	-1.3	.	4	1%	0
COc1ccc(N=C2NC(=O)/C(=C/c3ccco3)S2)cc1	-3	-7	3.3	?	.	?	-4
COc1ccc2oc(C(F)(F)C(F)F)cc(=O)c2c1	25	-22	-0.7	1.5%	0	21%	2
NC(=O)c1ccc(N2CCCCC2)c(N2C(=O)CCC2=O)c1	-1	0	-4.9	2.6%	7	27%	3
CC(C)(C)OC(=O)NCCCCCc1cn([C@@H](CO)C(=O)NCCCCCCCCCCC(=O)N2CCN(C(=O)OC(C)(C)C)CC2)nn1	-2	16	7.0	1.5%	-2	.	-8
CCOC(=O)c1cnc2ccccc2c1NCCc1ccc(OC)c(OC)c1	4	-1	-1.1	1.9%&1.1%	3	7%	-14
CC1CC1C(=O)N(CCC1=CCCCC1)c1c(N)n(Cc2ccccc2)c(=O)[nH]c1=O (stereo not given)	1	-9	-5.2	5.5%	-1	.	1
SMILES	Six1-Eya2 inh	D2 potentiator	D2 ag	PINK1 expr mod	CtBP-E1A inh	Sfp inh	TRPV1 PAM
CCOc1cccc(CN(C)CC2CCCN(CCc3ccc(Cl)cc3)C2)c1O (stereo not given)	1	-67	-0.2	9.1%	.	0%	5
COc1ccccc1S(=O)(=O)N(C)C[C@@H]1OCc2cnnn2CCCC(=O)N([C@H](C)CO)C[C@H]1C	3	-2	-9.2	0.8%	0	.	.
COc1cc(-c2nc3cnccn3c2Nc2ccccc2)ccc1O	10	-8	9.7	9.0%	-25	-1%	8
COc1ccc2oc(-c3ccncc3)cc(=O)c2c1	-24	-5	5.8	-1.3%	-18	.	.
COc1cccc(CNC(=O)CC(NC(=O)c2ccccc2)c2ccccc2)c1 (stereo not given)	3	11	-5.3	12%	8	.	0
O=C(Nc1ccc(N2C(=O)CCC2=O)cc1Cl)c1cccs1	0	-3	2.5	1.4%	0	0%	-13
O=C(NCC1CCCO1)C(c1cccnc1)N(C(=O)Cc1cccs1)c1cccnc1 (stereo not given)	-2	-5	-0.1	.	9	15%	-2
COC(=O)c1ccc(NC(=O)c2ccccc2N(C)S(=O)(=O)c2ccccc2)cc1	-3	-14	-3.1	3.9%	6	-9%	-6
CC1=C(C)/C(=N\OC(=O)/C=C/c2ccccc2)C=CC1=O	-6	24	?	-0.4%	-8	9%	0
COc1cccc(CNC(=O)COC(=O)CN(C)S(=O)(=O)c2ccc(NC(C)=O)cc2)c1	-6	4	-3.3	0.6%	1	14%	6
COCCN(C(=S)Nc1ccc(OC)cc1)C(C)c1cccs1 (stereo not given)	-7	-27	-3.0	0.3%	-12	11%	3
Cc1sc(NC(=O)CSc2nnc(COc3ccccc3)n2C)c(C#N)c1C	2	-19	-0.7	11%	1	11%	5
COc1ccccc1NC(=O)COC(=O)c1c(C)nn(-c2ccccc2)c1C	-2	5	0.4	0.0%	2	.	4
CCOc1ccccc1OCC(=O)NC1CCSc2ccccc21 (stereo not given)	4	-8	-2.7	2.1%	-4	.	.
O=C(c1ccc(COc2ccc(Br)cc2)o1)N1N=C(C(F)F)CC1(O)C(F)F (stereo not given)	1	-2	3.7	6.1%	10	?	10
CC(C)C(C=Cc1ccccc1)=NNS(=O)(=O)c1ccccc1	6	-5	-5.6	-0.9%	4	.	.
CCc1sc(C(=O)NCCCn2ccnc2)cc1Br	-2	-3	-0.1	1.7%	3	1%	?
COc1cccc(N=NC2C(=O)N(C(N)=S)N=C2C)c1 (stereo not given)	-14	-13	-7.0	0.4%	-4	.	.
CCN(CC)C(=O)Cn1nnc(-c2ccc(S(C)(=O)=O)cc2)n1	11	-12	11	-2.5%	.	19%	4
COc1ccc(N(CC(=O)NC2CCCC2)S(=O)(=O)c2c(C)[nH]c(=O)[nH]c2=O)cc1	6	-3	-7.6	-1.1%	-8	5%	10
O=C(CC1C(=O)NCCN1C(=O)Nc1ccccc1)Nc1cc(Cl)cc(Cl)c1 (stereo not given)	3	-12	-2.5	-0.6%	-13	10%	-6
CCOc1ccccc1C=NN1CCCCCC1	-23	-4	-0.8	14%	-11	.	.
COCCSc1ccccc1C(=O)NCc1ccc2c(c1)OCO2	3	-8	-4.2	1.8%	7	14%	16
CC(=O)Nc1ccc(N=Nc2ccccc2)cc1	-10	-15	-7.3	17%	-20	1%	-8
O=c1[nH]c2cccc(F)c2n2cccc12	0	-2	-5.0	0.7%	-15	11%	-1
SMILES	Six1-Eya2 inh	D2 potentiator	D2 ag	PINK1 expr mod	CtBP-E1A inh	Sfp inh	TRPV1 PAM
C=C(C)Cn1c(CCNC(=O)CC)nc2ccccc21	11	-1	-1.3	-1.4%	4	14%	10
COc1ccc(-c2noc(CCCC(=O)NCCc3ccccc3)n2)cc1OC	0	-14	-1.1	2.5%	5	13%	-13
CCOP(=O)(/C(C#N)=C(\C)O)c1ccccc1 (stereo not given)	-4	-6	-3.6	1.2%	.	20%	-4
O=C(Cn1cc(COc2ccc3ccccc3c2)nn1)NS(=O)(=O)c1cccc(OC(F)F)c1	1	0	3.3	0.6%	2	.	.
CCOC(=O)N1CCN(C(=O)C(NC(=O)c2ccc(C(C)(C)C)cc2)C(C)C)CC1 (stereo not given)	3	-2	0.0	1.5%	19	.	-22
COC(=O)C1=C(Nc2ccccc2NC(=O)c2ccccc2C(=O)O)CSC1	-14	-1	0.5	-0.9%	-1	45µM*	-27
Cc1ccc(NC(=O)Nc2cccn(Cc3c(F)cccc3Cl)c2=O)cc1	1	-4	-2.5	2.8%	2	2%	2
O=c1cc(-c2cccc(Cl)c2)oc2cccc(O)c12	-1	-8	-1.9	-0.6%	-13	4%&0%	7
CCOc1ccc(S(=O)(=O)N2CCCC(C(=O)Nc3cccc(C)c3)C2)cc1 (stereo not given)	10	3	-0.8	4.5%	20	20%	-7
COc1ccc(S(=O)(=O)N2CCN(c3ccccc3)CC2)cc1C(=O)N1CCCC1	0	3	-3.0	-1.9%	-7	7%	5
COc1cccc(Nc2ncnc3ccc(Br)cc23)c1	8	-9	1.8	1.2%	8	.	.
CCc1ccc2[nH]cc(C(=O)OCCOC)c(=O)c2c1	-1	6	0.1	0.4%	2	-4%	26
O=C(/C=C/c1ccc(Cl)cc1Cl)Nc1ccncc1	13	-1	-1.0	7.4%	-1	7%	2
CCOC(=O)N1CCN(C(=S)NC(=O)c2ccc(Br)cc2)CC1	-4	2	-4.5	0.9%	7	8%	2
C/C(=N\Nc1cccc(Cl)c1)C1(C)N(O)C(C)(C)C(c2ccco2)=[N+]1[O-] (stereo not given)	-1	-3	?	2.1%	.	8%	-15
CC(C)Cn1c(N)c(S(=O)(=O)c2cccs2)c2nc3ccccc3nc21	-2	-16	-4.6	-2.4%	-6	-5%	8
CCOC(=O)c1oc2ccccc2c1NC(=O)c1cccc(OC)c1OC	9	-10	-1.3	?	-2	0%	20
O=S(=O)(c1ccc(OCC(O)CN2CCc3ccccc3C2)cc1)N1CCOCC1 (stereo not given)	-1	-29	1.3	-0.6%[38.3 µM]	0	18%	?
COc1ccc(/C=C(/NC(=O)c2ccc(C)cc2)C(=O)NCc2ccncc2)cc1	2	-8	-3.0	0.0%	6	8%	-11
Cc1onc(-c2ccccc2)c1C(=O)N1CCN(C/C=C/c2ccccc2)CC1	-6	1	-6.1	-0.2%	0	-17%	-11

In a second layout: 2 of the compounds above
Below each SMILES – Six1-Eya2 inh	D2 potentiator	D2 ag	PINK1 expr mod	CtBP-E1A inh	Sfp inh	TRPV1 PAM
O=c1cc(-c2cccc(Cl)c2)oc2cccc(O)c12
  -1	-8	-1.9	-0.6%	-13	4%&0%	7
CCOC(=O)N1CCN(C(=S)NC(=O)c2ccc(Br)cc2)CC1
  -4	2	-4.5	0.9%	7	8%	2

An excerpt from above in order of their number in CtBP-E1A inh, falling.
molecule | CtBP-E1A inh
CCOC(=O)N1CCN(C(=O)C(NC(=O)c2ccc(C(C)(C)C)cc2)C(C)C)CC1 (stereo not given) | 19
COc1ccc(/C=C(/NC(=O)c2ccc(C)cc2)C(=O)NCc2ccncc2)cc1 | 6
C=C(C)Cn1c(CCNC(=O)CC)nc2ccccc21 | 4

From PubChem BioAssay
